Bioassay records from PubChem BioAssay.
rRNA inh HTS = inhibits bacterial ribosomal RNA function over humanized ribosomes | E. coli WT GFP vs humanized-ribosome RFP mutants, fluorescence, 24 h; stronger effect = lower value; DMSO median 0, no signal -100 | GFP signal change (wild-type ribosome), % (test concentration not listed) | actives 1.6% (n = 350,000) | AID 720706;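 active = significant combined selectivity score with lowered wild-type GFP, culture density cut under 30%, mutant RFP and density less affected; inactive = any of these conditions unmet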; note: one replicate is shown; some compounds called inactive have numbers as strong as hits
AF4-AF9 inh = inhibitors of human MLL-AF4/AF9 interaction. P42568. AlphaScreen, biotin-AF4 peptide binding to FLAG-AF9. inhibition, % at 10 µM. actives 0.47% (n = 350,000). AID 651704;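 active = every replicate reaching a set inhibition limit, whatever the replicate mean, cut at about 25% in these data; inconclusive = mean inhibition reaches that limit but some replicates miss it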;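 note: 0% = plate neutral control median and 100% = total signal loss; the record names both 10 and 1 µM as test concentration; the first replicate is given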
Target sequence (P42568 whole entry, looked up): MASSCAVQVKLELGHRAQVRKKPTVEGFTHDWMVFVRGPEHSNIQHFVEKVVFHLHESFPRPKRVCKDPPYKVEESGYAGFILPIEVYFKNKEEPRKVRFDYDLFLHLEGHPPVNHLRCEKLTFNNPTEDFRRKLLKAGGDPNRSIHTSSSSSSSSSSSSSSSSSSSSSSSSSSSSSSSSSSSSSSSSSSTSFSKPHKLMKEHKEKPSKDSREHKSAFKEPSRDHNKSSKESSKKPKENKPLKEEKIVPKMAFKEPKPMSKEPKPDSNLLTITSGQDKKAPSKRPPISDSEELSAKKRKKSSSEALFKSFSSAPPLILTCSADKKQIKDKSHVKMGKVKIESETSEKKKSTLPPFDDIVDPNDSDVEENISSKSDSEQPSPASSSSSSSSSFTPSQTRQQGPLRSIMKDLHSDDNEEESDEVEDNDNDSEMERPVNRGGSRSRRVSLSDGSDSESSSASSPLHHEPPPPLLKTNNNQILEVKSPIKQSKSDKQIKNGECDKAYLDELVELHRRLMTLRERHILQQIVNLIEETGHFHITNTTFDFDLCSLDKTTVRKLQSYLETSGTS
T cruzi repl = blocks replication of Trypanosoma cruzi; T. cruzi beta-gal in NIH3T3, luminescence, 90 h; AID 1885; inhibition, % (test concentration not listed); actives 1.4% (n = 300,000);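 active = mean inhibition across valid replicates above about 55%, limit read from the data; inconclusive = mean below that limit but half or more replicates reach it; inactive = mean below it, under half of replicates reach it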;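 note: signal also drops with host cell toxicity which is not excluded here; 0% = plate median of DMSO wells and 100% = zero luminescence signal; higher percent means less beta-gal luminescence so fewer parasites; stock transfer was 50 nL into about 50 µL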
Beta cell apopt = beta cell apoptosis inhibition. INS-1E cytokine-induced death, ATP luminescence, 48 h; percent of positive-control rescue, neutral wells zero. protection from apoptosis, % (concentration not given with the values). actives 0.8% (n = 300,000). AID 435005;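 active = all replicates at 75% or more, or half of them and the mean; inconclusive = half reach 75% but not the mean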;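 note: 0% = cytokine-treated negative control wells and 100% = positive control rescue; higher means more ATP so stronger rescue from cytokine killing; wells of about 40 µL received 100 nL stock; the first replicate is given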
RanGTP-Imp inh = inhibitors of RanGTP-importin-beta interaction, primary screen, biochemical, FRET, CFP-Ran, YFP-importin-beta, homogeneous; cell-free CFP-Ran/YFP-importin-beta FRET ratio; inhibition, % (no concentration beside the values); actives 1.1% (n = 300,000);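 active = most replicates above 15%; inconclusive = exactly half above 15%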;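 note: 0% = DMSO wells and 100% = Ran loaded with GDP instead of GTP; wells of about 40 µL received 100 nL stock; the first replicate is given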
Vif TR-FRET = inhibitors of Vif binding to APOBEC3G peptide, primary screen, biochemical, TR-FRET, GST-Vif 1-94, biotin-A3G peptide, dose response retest (AID 1117319) | TR-FRET GST-Vif / biotin-A3G peptide binding; higher % means a stronger effect; test concentration not given here; strong numbers were not always called active | inhibition, %; hits with a dose series show IC50 in µM | actives 0.57% (n = 260,000);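 active = above the screen mean plus three standard deviations and confirmed in dose response; inconclusive = results disagree or hit not tested in dose response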;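 note: Vif residues 1-94 fused to GST binding biotinylated APOBEC3G peptide 110-148; 0% = full assay without inhibitor and 100% = GST in place of GST-Vif; retest series ran down from 100 µM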
Calb FLC = C. albicans growth modulation with fluconazole; C. albicans CaCi-2 (fluconazole-resistant clinical isolate) + fluconazole, Alamar Blue growth, 48 h; growth inhibition, % (test concentration not listed); actives 0.57% (n = 300,000);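 active = most replicates above 75%; inconclusive = exactly half above 75%; inactive = most below 75%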;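 note: all wells also contain fluconazole at 8 µg/ml as a sub-toxic cotreatment; 0% = median of DMSO wells and 100% = median of geldanamycin control wells; wells of about 8 µL received 7.5 nL stock; the first replicate is given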
A1 inh = inhibitors of the anti-apoptotic protein A1, read as caspase activation; MEF A1-2A-BIM cells, Caspase-Glo 3/7 luminescence, 3 h; percent of clofoctol response, vehicle zero; caspase activation, % (test concentration not listed); actives 0.066% (n = 330,000); AID 2462;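 active = over half of replicate activation scores above 10%, or exactly half above 10 with the replicate mean above 10; inconclusive = replicate mean below 10 yet half the replicates above 10; inactive = over half of replicates below 10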;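 note: wells of about 30 µL received 50 nL stock; many hits fall short of the cut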
rRNA inh HTS OD600 = recorded beside rRNA inh HTS, whose call it bears; OD600 change, %; measured here: OD600 growth;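 optical density of the mix in the first replicate; 0 = DMSO median and -100 = no signal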
rRNA inh HTS RFP = second read-out of rRNA inh HTS, no call of its own (marks repeat the call); RFP signal change, %; measured here: RFP humanized mutant strains;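 first replicate; 0 = DMSO median and -100 = no signal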
* marks the source's active call; other numbers are inactive results; ? = inconclusive; . = no result given.

Structure,rRNA inh HTS,rRNA inh HTS OD600,rRNA inh HTS RFP,AF4-AF9 inh,T cruzi repl,Beta cell apopt,RanGTP-Imp inh,Vif TR-FRET,Calb FLC,A1 inh
CN(C(=O)c1cccc(NC(=O)Cc2ccc([N+](=O)[O-])cc2)c1)C1CCCCC1,-8,9,3.1,4.5,.,-2,.,.,.,-0.9
O=C(N/N=C1\CC2CC=CC12)c1ccc(COc2ccccc2)cc1 (stereo unspecified),1,2,-1.3,-3.1,-10,1,?,1%,-2,-0.5
Cc1ccccc1N(CC(=O)N1CCCC1)S(=O)(=O)c1ccc(Cl)cc1,-6,-9,1.7,-1.6,-13,-2,0.5,.,-14,-2.0
COc1cc(-c2nnc(SCC#CCO)o2)cc(OC)c1OC,0,1,1.3,.,-18,8,1.5,0%,9,-0.3
Cc1ccnc(NC(=O)CNC(=O)c2ccccc2Br)c1,6,4,0.0,-2.3,-6,-3,1.5,.,1,1.3
Cc1ccc(C(=O)NC2CCCCNC2=O)cc1C (stereo unspecified),13,6,2.1,-3.7,-16,-6,6.5,-5%,-2,-1.0
Cc1cc(=O)n2c(c1C#N)SC1CCCCC12O (stereo unspecified),6,4,-2.7,.,-6,-2,-5.4,2%,2,-0.5
C1CCC(C23CC4CC(CC(C4)C2)C3)NC1 (stereo unspecified),.,.,.,.,5,-8,-3.9,3%,-1,-0.4
COc1ccc(C(=O)NCCCNC(=O)c2cnccn2)cc1Br,2,7,0.7,2.0,1,0,-0.6,.,4,0.4
COc1ccc(/C=N/c2sc3c(c2C#N)CCN(Cc2ccccc2)C3)c(O)c1,.,.,.,.,0,0,4.2,.,3,0.3
O=C(Cc1ccc([N+](=O)[O-])cc1)Nc1cc(C(F)(F)F)cc(C(F)(F)F)c1,-29*,-23*,-1.0*,1.7,70*,13,6.7,-7%,-3,0.8
O=C(COC(=O)c1cc([N+](=O)[O-])ccc1NCc1ccccc1)NC1CCCc2ccccc21 (stereo unspecified),.,.,.,.,9,7,-2.5,12%,1,1.2
CC(=O)Nc1cccc(C(=O)OCC(=O)NC2CCCCCCC2)c1,-2,-1,-0.8,-0.8,.,2,.,-4%,.,-0.2
O=C1c2ccsc2SCCN1Cc1ccc(Cl)cc1Cl,.,.,.,.,15,-7,-3.2,13%,33,0.2
Cc1cc(C)nc(NC(=O)c2c(-c3ccccc3Cl)noc2C)n1,.,.,.,.,1,11,1.6,?,-4,1.2

(listing goes on)
Structure,rRNA inh HTS,rRNA inh HTS OD600,rRNA inh HTS RFP,AF4-AF9 inh,T cruzi repl,Beta cell apopt,RanGTP-Imp inh,Vif TR-FRET,Calb FLC,A1 inh
COc1ccc(CCC(=O)NCC(c2ccco2)N2CCc3ccccc32)cc1 (stereo unspecified),-31,-34,-8.2,9.4,-3,1,-0.8,6%,-5,-0.2
CCNc1nc(=S)nc(NCc2ccccc2)[nH]1,19,12,3.1,-1.3,-2,-9,-5.0,-7%,1,0.0
Cc1noc(C)c1COc1ccc(C(=O)OC(C)C(=O)Nc2ccc(S(=O)(=O)N3CCOCC3)cc2)cc1 (stereo unspecified),10,-1,-2.4,4.1,-3,-6,1.7,.,40,1.1
O=C(NC1CCCC1)C(c1ccccc1)N(Cc1ccc(F)cc1)C(=O)c1csnn1 (stereo unspecified),-1,8,1.1,2.3,4,-7,2.8,.,10,-0.1
CCC(C)C(NS(=O)(=O)c1ccc(C)cc1)C(=O)NCCCN1CCOCC1 (stereo unspecified),12,15,1.3,-14,2,1,-2.1,-4%,-23,-0.7
O=C1c2ccc(-c3ccc(F)cc3OCc3ccccc3)cc2S(=O)(=O)c2cccc(C(=O)N3CCN(c4ncc(Br)cn4)CC3)c21,3,-5,-1.8,1.4,.,7,.,.,.,-0.9
Cc1cccn2c(=O)c3cc(C(=O)N4CCN(Cc5ccccc5)CC4)sc3nc12,.,.,.,1.3,.,-9,.,1%,.,-0.4
CC1(NC(=O)CCc2nc3ccccc3c(=O)[nH]2)CCS(=O)(=O)C1 (stereo unspecified),18,19,1.6,-2.0,-5,0,4.5,.,3,-0.6
COCc1c(C(=O)N/N=C\c2cccs2)nnn1-c1nonc1N,0,8,-2.2,0.5,-7,0,3.3,.,25,-0.1
CCOC(=O)C1(Cc2cccc(OC)c2)CCN(Cc2ccc(OC)c(O)c2)CC1,-2,-7,-2.5,4.5,6,-7,-2.3,2%,-18,-0.1
CCOc1cc(CNCc2cc(OC)cc(OC)c2)ccc1OC,5,7,-4.9,0.2,17,11,2.4,.,-11,-0.6
COc1ccc(OCc2nnc(SCC(=O)Nc3ccccc3C#N)o2)cc1,-4,-6,-1.1,-2.9,1,1,2.5,.,7,-0.6
COc1ccc(NC(=S)N(CCO)Cc2cc3c(C)cc(C)cc3[nH]c2=O)cc1,17,13,-1.9,.,2,0,-2.2,-11%,4,0.4
CCC1=NC(c2ccccc2Cl)N(O)C1(C)C (stereo unspecified),17,8,-4.0,6.1,8,-3,3.1,3%,-7,-0.3
O=[N+]([O-])c1ccc(N2CCN(CCOCCO)CC2)c([N+](=O)[O-])c1,19,11,-0.1,-3.1,-1,1,-1.7,.,43,-0.6

Following part.
Structure,rRNA inh HTS,rRNA inh HTS OD600,rRNA inh HTS RFP,AF4-AF9 inh,T cruzi repl,Beta cell apopt,RanGTP-Imp inh,Vif TR-FRET,Calb FLC,A1 inh
O=C(CN1c2cccc3cccc(c23)S1(=O)=O)N1CCN(c2ccc(F)cc2)CC1,-3,-18,4.4,-4.7,.,-3,.,11%,.,0.6
COc1cccc(C2CC(c3cccc(Br)c3)n3nc(N)nc3N2)c1 (stereo unspecified),-5,1,-0.7,-0.7,16,72,4.7,5%,2,-0.8
O=C(Nc1ccc(CN2CCOCC2)cc1)c1ccc(-c2ccc(Cl)cc2Cl)o1,-20,-16,20,8.3,15,8,-1.4,-3%,4,-0.7
Cc1cc(Nc2ncc(Cl)cc2Cl)n[nH]1,.,.,.,.,-9,-4,1.1,2%,0,1.0
COCCC(=O)N1CCC(Oc2ccc(C(=O)NCCc3cn[nH]c3)cc2)CC1,5,3,-0.2,1.8,6,-3,0.8,-2%,2,0.0
C[C@H](CO)N1C[C@H](C)[C@@H](CN(C)C(=O)Nc2ccc(C(F)(F)F)cc2)Oc2ccc(NC(=O)CCC(F)(F)F)cc2C1=O,0,-1,1.2,0.0,.,3,.,.,.,0.0
COc1ccc2[nH]cc(CCN3C(=O)CCC3=O)c2c1,.,.,.,.,-12,-3,-0.3,0%,-2,0.7
CCOc1ccc(OCC)c(NC(=O)C2CCCN(c3ncccn3)C2)c1 (stereo unspecified),.,.,.,.,9,6,1.5,-3%,-4,0.4
CCCc1nc2scc(-c3ccc(C)cc3)c2c(=O)n1N,.,.,.,.,16,14,5.9,-1%,-12,0.2
CCCCCC(=O)Nc1cccc(-c2nc3ncccc3o2)c1,-7,-7,-0.1,8.8,2,-2,0.0,9%,2,0.3
COc1ccc(CNC(=O)c2ccc(CS(=O)c3ccccc3)o2)cc1 (stereo unspecified),-10,-8,-5.9,-2.3,-3,-5,1.0,8%,-5,0.1
Cc1ccc(C(=O)NC(=S)NCC2CCCO2)cc1Br (stereo unspecified),-6,-18,-2.4,-4.6,11,-2,1.5,13%,2,-4.0
COc1ccccc1S(=O)(=O)Cc1ccc(C(=O)NCC(OC)OC)o1,-4,1,-2.5,-1.8,-1,-4,2.1,-2%,-1,-1.3
O=C(CN1C(=O)c2ccccc2C1=O)OC(C(=O)c1ccc(Cl)cc1)c1ccccc1 (stereo unspecified),.,.,.,.,-3,-7,-0.8,2%,1,0.5
Cc1nn(CC(=O)Nc2ccc(N3CCOCC3)cc2)c(C)c1Cl,2,3,3.2,-11,-4,4,-0.2,-1%,-1,1.4

(cont.)
Structure,rRNA inh HTS,rRNA inh HTS OD600,rRNA inh HTS RFP,AF4-AF9 inh,T cruzi repl,Beta cell apopt,RanGTP-Imp inh,Vif TR-FRET,Calb FLC,A1 inh
Cn1c(CNC(=O)OC(C)(C)C)n[nH]c1=S,7,7,-0.6,-0.8,-12,-13,-3.5,-9%,4,-0.8
C=CCNC(=O)/C(C#N)=C/c1ccccc1[N+](=O)[O-],11,5,-1.9,-0.6,4,-2,-1.1,17%,1,-1.2
O=C(N/N=C/c1cn(Cc2cccc(F)c2)c2ccccc12)c1cc(O)cc(O)c1,-24*,-10*,1.6*,14,1,2,-2.0,3.5µM*,2,-0.5
Cn1c(=O)n(C)c2cc(NC(=O)COc3ccc(Cl)cc3)ccc21,-3,6,-0.4,-12,-1,5,-3.1,?,7,0.6
CC(NC(=O)CCc1nc2cc(S(=O)(=O)N3CCOCC3)ccc2n1C)c1ccc(S(N)(=O)=O)cc1 (stereo unspecified),7,19,0.1,-1.2,-12,-2,-1.5,.,6,0.8
Cc1ccc(S(=O)(=O)Nc2ccncc2)c(C)c1N(C)S(=O)(=O)c1ccc(Cl)cc1,9,3,1.2,0.2,-7,-1,?,9%,1,0.2
COc1cccc(OC2OC3COC(C)(C)OC3C(O)C2NC(C)=O)c1 (stereo unspecified),10,2,-2.5,-1.0,-14,-3,-2.8,-6%,4,-0.1
Cc1ccccc1C(=O)NC(=S)N(Cc1ccccc1)c1ccccn1,5,-3,1.5,-2.2,.,-4,.,.,.,-0.2
C=CCNC(=O)/C(C#N)=C/c1ccc(OS(=O)(=O)c2ccc(C)cc2)c(OC)c1,-27,-48,-15,-1.2,7,-3,?,20%,-5,-0.8
CCOc1cc(NC(=O)c2cccs2)c(OCC)cc1NC(=O)CCC(=O)NCc1ccccn1,8,15,-0.3,1.6,14,4,-1.9,?,-4,0.3
CCN(CC)Cc1ccccc1Sc1ccccc1,5,-5,0.8,-0.3,-8,1,3.3,.,-39,0.4
CC1(C)CC(=O)C=C(N=CC2=C(O)CC(C)(C)CC2=O)C1,.,.,.,.,8,2,0.2,-3%,5,0.3
O=C(COC(=O)Cc1c(F)cccc1Cl)Nc1nnc(-c2ccccc2)o1,-18,-39,-4.5,0.3,0,.,0.0,4%,24,1.6
CN(C)c1cccc(NC2=CC(=[N+]3CCOCC3)CC(C)(C)C2)c1,.,.,.,.,11,-4,-7.2,7%,-6,-0.3
CC1CCN(S(=O)(=O)c2ccc(C(=O)NCc3cccnc3)cc2)CC1,2,-1,-1.7,-9.5,-3,1,-3.0,3%,-6,-0.3
CCOC(=O)NNC(=S)Nc1c(C)n(C)n(-c2ccccc2)c1=O,13,8,6.0,-7.9,4,-1,0.5,-12%,-22,0.6
O=C(CSc1nc(COc2ccccc2)nc2ccccc12)NC1CCCC1,20,18,5.6,-2.3,-13,1,-3.0,2%,-1,-0.8

A portion of the library (hit frequency here may not be typical).
